Screens from PubChem.
CtBP-E1A blk – qHTS Assay for Inhibitors of the CtBP/E1A Interaction; 0.49% of 340,000 active; AID 651724, 2012; AlphaScreen GST-E1A/His-CtBP binding, 1536-well; stronger effect = lower value; control for the full effect not named in the record; activity change, % (no concentration beside the values); CtBP / adenovirus E1A interaction (AlphaScreen); in the data active means activity change below about -65%; inconclusive means about -30% to -65%; inactive means above about -30%; note: % is set by controls: 0 for no effect and ±100 for the full control effect; compound concentration not given in the record
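In 5 uL wells, 23 nL compound meets equimolar GST-E1A and His-CtBP (5X stock 125 nM each) for 2 h, 37 °C. Beads (5X, 50 ug/mL) then 1 h, 37 °C, dark.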
D2 ag – Beta-Arrestin HTS for Positive Allosteric Modulators of the Human D2 Dopamine Receptor: Agonists; activation, % (concentration not given with the values); AID 624465, 2012; 0.084% of 360,000 active; D(2) dopamine receptor (Homo sapiens), P14416; DiscoveRx PathHunter D2 beta-arrestin, luminescence, 90 min; 100% = 57 uM dopamine signal; in the data active = activation above about 40%; inconclusive = about 15% to 40%; inactive = below about 15%; note: compound concentration not given in the record; the text of the record calls up to 30% inactive
Target sequence (P14416 whole entry, looked up): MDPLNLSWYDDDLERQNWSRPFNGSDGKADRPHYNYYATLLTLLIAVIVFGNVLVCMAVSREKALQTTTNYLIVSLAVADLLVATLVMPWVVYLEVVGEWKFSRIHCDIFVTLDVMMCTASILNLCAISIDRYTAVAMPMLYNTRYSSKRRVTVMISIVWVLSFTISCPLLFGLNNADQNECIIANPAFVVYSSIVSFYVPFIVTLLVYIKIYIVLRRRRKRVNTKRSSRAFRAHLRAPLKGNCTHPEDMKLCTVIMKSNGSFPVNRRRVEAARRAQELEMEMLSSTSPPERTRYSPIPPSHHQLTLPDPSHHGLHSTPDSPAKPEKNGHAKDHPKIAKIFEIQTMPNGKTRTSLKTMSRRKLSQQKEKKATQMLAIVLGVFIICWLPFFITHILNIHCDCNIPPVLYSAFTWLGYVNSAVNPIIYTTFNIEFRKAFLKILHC
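DiscoveRx PathHunter D2 beta-arrestin cells (2,100/well) attached overnight, then compound-stimulated 90 min at 37 C in HBSS/10 mM HEPES/0.1% Tween-20 buffer; beta-galactosidase complementation read by luminescence after 1 h at ambient temperature. Dopamine 57 uM final (EC100) as control.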
gsp antagonist – qHTS for Antagonists of gsp, the Etiologic Mutation Responsible for Fibrous Dysplasia/McCune-Albright Syndrome: qHTS; gsp-mutant cells, cAMP HTRF, 30 min; control for the full effect not named in the record; Potency, µM (top dose mostly 76.9 µM), without a hit: top-dose activity change, negative = inhibition, hits mostly inhibitors; 0.4% of 340,000 active; AID 624288, 2012; active = falling curve of any shape with a large fitted effect; inconclusive = falling curve, mostly with a smaller effect; inactive = flat or rising curve; cell line not stated here;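 note: intracellular cAMP measured with PDE inhibitor Ro 20-1724 present during compound exposure; potency is the fitted concentration of half-maximal effect; % is set by controls: 0 for no effect and ±100 for the full control effect; nearly all actives have a fitted effect of over 65% in size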
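Cells in G418 medium, seeded 16-24 h, 37C; buffer exchange to DPBS + 1 mM CaCl2, 0.5 mM MgCl2, 0.05% BSA; cpds in DMSO + […] (300 uM stock), 30 min 37C; HTRF cAMP detection.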
gsp ag – qHTS for Agonist of gsp, the Etiologic Mutation Responsible for Fibrous Dysplasia/McCune-Albright Syndrome: qHTS; gsp mutant cells, cAMP HTRF, 30 min; control for the full effect not named in the record; Potency, µM (titrated, usually from 76.9 µM), for inactives: top-dose activation (cAMP increase), hits mostly activators; 0.13% of 340,000 active; active = well fitted activation curve with a large enough effect; inconclusive = small, poorly fitted or top-dose-only effect, or another doubt; inactive = no such curve, though single readings can be large or run the other way; cell line not stated here;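 note: phosphodiesterase inhibitor Ro 20-1724 added with compounds to block cAMP breakdown; potency is the fitted concentration of half-maximal effect; nearly all actives have a fitted effect of over 60% in size; about a fifth of the inactives were tested at one dose only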
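Cells stably selected in G418 were plated at 2000/well, grown 16-24 hr, then given compounds in DMSO with the PDE inhibitor […] (300 uM solution added) for 30 min at 37C; cAMP was read by HTRF.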
Six1-Eya2 inh – qHTS Assay for Inhibitors of the Six1/Eya2 Interaction; Homeobox protein SIX1 (Homo sapiens) + Protein phosphatase EYA2 (Homo sapiens), …; AlphaScreen GST-Six1/His-Eya2 binding, biochemical; stronger effect = lower value; control for the full effect not named in the record; 0.56% of 360,000 active; activity change, % (no concentration beside the values); in the data active = activity change below about -65%; inconclusive = about -30% to -65%; inactive = above about -30%; note: % is set by controls: 0 for no effect and ±100 for the full control effect; compound concentration not given in the record
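Homogeneous AlphaScreen proximity assay pairing GST-Six1 with His-tagged Eya2 (added as 5X mix: 250 nM and 500 nM) in 50 mM Tris pH 8.0, 300 mM NaCl, 1 mM TCEP. Glutathione donor and nickel acceptor beads; 1 h, 37 °C, dark.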
D2 PAM – Beta-Arrestin HTS for Positive Allosteric Modulators of the Human D2 Dopamine Receptor: Potentiators; D(2) dopamine receptor (Homo sapiens), P14416; potentiation, % (concentration not given with the values); 0.23% of 360,000 active; AID 624464, 2012; DiscoveRx D2 beta-arrestin cells, luminescence, 90 min; 100% = 57 uM dopamine signal; active = potentiation of 50% or more; inconclusive = 30% to 50%; inactive = 30% or less;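 note: compound concentration not given in the record; tested on top of an EC20 dose of dopamine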
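D2 cells co-treated with compound plus 50 nM dopamine (EC20) for 90 min at 37 deg C to detect potentiation. Beta-arrestin recruitment was read as enzyme-fragment luminescence after 1 h at ambient temperature. Full response was set by 57 uM dopamine.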
* = called active by the depositor; ? = inconclusive; · = no result given; [ ] = another dose, or the depositor's remark.

Each structure is followed by: CtBP-E1A blk	D2 ag	gsp antagonist	gsp ag	Six1-Eya2 inh	D2 PAM
> COC(=O)CSC1=C(C#N)C(c2sccc2C)CC(=O)N1 (stereo not given)
  1	-2.2	2%	-1%	-5	3
> Cc1ccccc1CN(c1ccc(C(=O)NCc2cccnc2)cc1)S(C)(=O)=O
  1	2.2	3%	0%	-4	-8
> N#C/C(=N/Nc1ccc(S(=O)(=O)N2CCOCC2)cc1)C(N)=O
  -15	-6.5	·	-2%[15.4 µM]	8	-35
> Nc1ccnn1Cc1cccnc1
  -1	-1.8	17%	4%	2	-15
> COc1ccc(C(=O)NCC2CCCCC2)cc1S(=O)(=O)N1CCOCC1
  3	-2.7	4%	19%	6	-12
> Cc1oc2ccccc2c1CC(=O)NCCCN(C)C
  ·	-5.7	8%	19%	6	-17
> O=C(CCc1ccccc1)NNC(=O)Nc1ccc(Cl)cc1
  12	-5.3	12%	-9%	-1	-11
> O=C(Nc1ccccc1Cl)c1cc2ccccc2o/c1=N\O
  -6	-1.6	-8%	14%	-10	2
> CC(C)(C)C(=O)NC(=S)NNC(=O)c1sc2ccccc2c1Cl
  -4	-11	50µM*	-56%[inhibitor]	-8	-9
> CCC(C)c1ccc(C(C)NC(=S)NCc2ccc(F)cc2)cc1 (stereo not given)
  -11	-0.9	-16%	5%	-5	-8
> CCNc1ccccc(C(=O)/C=C/c2ccc3c(c2)OCO3)c1=O
  -1	-14	-3%	-15%	-21	?
> CCN(CC)CCCNS(=O)(=O)c1ccc(OC)cc1
  -10	-0.3	-3%	?	-8	-11
> CC(=O)c1ccc(S(=O)(=O)NCc2ccc(C(=O)NCC(c3ccccc3)N(C)C)cc2)cc1 (stereo not given)
  2	-2.7	9%	2%[15.4 µM]	2	-7
> COc1ccc(C)cc1N(C(=O)COc1cccc(F)c1)c1nc2ccccc2s1
  -3	0.1	-3%	3%[15.4 µM]	-4	-5
> CCCc1ccc(OCc2ccc(C(=O)O)o2)c(OC)c1
  3	-1.0	-12%	-7%	-3	-8
> COCCCn1c(SCC(=O)O)nc2cc(OC)c(OC)cc2c1=N
  1	-0.5	1%	-40%[inhibitor]	7	-3
> Cc1ccc(O)c(C(=O)c2cnn(C(=O)Cc3csc(C)n3)c2)c1
  -20	-3.0	-1%	2%	-15	-5
> O=C(Nc1ccc(F)cc1)Nc1ccc2c(c1)CCC2
  6	-0.7	11%	2%	0	-15
> CCC(=O)NNc1ccc(Br)cc1
  -4	-0.9	12%	11%	5	-10
> Cc1cccc(NC(=O)CSCC(=O)N2CCN(Cc3ccc4c(c3)OCO4)CC2)c1
  5	-5.7	-7%	-2%[15.4 µM]	-7	-37
> Fc1ccc(-c2csc3ncnc(Cl)c23)cc1
  0	-2.1	21%	?	8	-7
> CC(C)CNC(=O)c1cc2nc(C3CC3)cc(C(F)(F)F)n2n1
  5	-3.1	13%	-3%	2	-11
> COc1ccc(NC(=O)CN(c2ccccc2F)S(=O)(=O)c2ccc(C)cc2)cc1
  -5	-6.6	-26%	-5%	2	-3
> COc1ccc(S(=O)(=O)N2CCN(C(=O)c3cc(C)nc4ccccc34)CC2)cc1OC
  0	8.6	-6%	15%	1	-3
> CCn1c(SCc2ccc(OC)c(F)c2)nc2ccccc2c1=O
  31	6.0	-9%	?	4	-1
> OC(c1ccccc1)(c1nc(-c2ccc(F)c(Cl)c2)cs1)C(F)(F)F (stereo not given)
  13	5.7	·	·	5	-16
> CCc1ccc2nc(N=C(N)N)nc(C)c2c1
  4	-2.9	10%	-9%[15.4 µM]	?	-12
> COc1ccccc1NC(=O)N(Cc1cc2cc(OC)c(OC)cc2[nH]c1=O)CC1CCCO1 (stereo not given)
  11	-0.8	18%	15%	-1	-33
> NC(=O)C1CCCN(C(=O)c2ccc(-c3cccc(Cl)c3Cl)o2)C1 (stereo not given)
  -3	0.3	-12%	7%[15.4 µM]	1	-2
> O=C(Nc1cccc(C(F)(F)F)c1)C1CCN(S(=O)(=O)c2ccc(N3CCCC3=O)cc2)CC1
  -9	5.0	?	8%	2	-30
> COC(=O)Cc1csc(Nc2ccc(Cl)cc2)n1
  2	-2.0	-1%	?	3	-8
> CCc1nc2c(OCC(=O)C(C)(C)C)cccn2c1N(C)C(=O)c1ccc(C)cc1
  1	-4.8	·	·	7	-10
> CCn1ccnc1C(O)c1cccc(OC)c1 (stereo not given)
  0	-2.7	-4%	?	2	-26
> CC(C)(C)NC(=O)Cn1nnc(-c2ccccc2Cl)n1
  10	-3.3	0%	8%	5	-1
> CN(C)CC/C=C1\c2cc(Cl)ccc2Sc2cc(F)c(F)cc21
  -29	-3.1	9%	16%	?	-20
> COc1cccc(CNC(=O)CSc2ccc(-c3ccccn3)nn2)c1
  -74*	1.4	-4%	4%[15.4 µM]	-65*	-2
> Cc1ccccc1NS(=O)(=O)c1ccc(NC(=O)c2ccco2)cc1
  -1	0.2	20%	31%	1	-22
> COc1ccc(Cl)cc1C(=O)NNC(=O)CSc1nncn1C
  1	-5.1	6%	-17%	0	-8
> O=C(O)COc1ccc(/C=N/NC(=O)c2cn(-c3ccccc3)nc2-c2ccccc2)cc1
  -4	2.8	-5%	-6%	-18	-3
> Cc1ccc(NC(=O)c2nc[nH]c2C(=O)Nc2ccccc2F)cc1
  4	-0.6	·	19%	-4	·
> O=[N+]([O-])c1cc(Br)ccc1C[n+]1ccccc1
  6	-1.1	5%	2%[15.4 µM]	-11	-4
> O=C(Nc1ccnn1C1CCN(Cc2ccc(F)cc2)CC1)C1CC1
  4	-1.0	-5%	17%	3	-21
> O=C(NC1CCCCCCC1)C1CCCN(S(=O)(=O)c2cnc[nH]2)C1 (stereo not given)
  -1	-4.8	2%	3%	-3	-5
> CC(C)NC(=O)c1ccccc1NC(=O)Cc1ccc(Br)cc1
  7	-5.6	-20%	3%[15.4 µM]	0	-21
> O=C(NCc1cccnc1)Nc1ccc(Br)cc1
  2	-1.8	10%	-31%[inhibitor]	1	-16
> CCN(CC)CCCNc1nc(CN2CCOCC2)nc2sc3c(c12)CCC3
  7	-4.4	-4%	-1%[15.4 µM]	-6	-19
> COc1cccc(CNc2ccc3c(c2)ncn3C(C)C)c1OC
  -3	-8.2	0%	-11%	1	-2
> Clc1ccc(-n2ncc3c(NCc4ccccn4)ncnc32)cc1
  -1	-1.2	6%	42%	-4	5
> COc1ccccc1CCNC(=O)c1nc(-c2cccs2)no1
  0	1.3	-3%	-12%	13	-9
> COc1ccc(C(C)=O)cc1CSc1nc2ccccc2c(=O)n1-c1ccccc1C
  7	-1.6	8%	19%	-16	-7
> Nc1ccc(O)c(-c2nc3ccccc3s2)c1
  -10	-0.5	2%	27%	-18	-5
> C/C(=N\O)C1/C(=N/O)CC2C1C2(C)C (stereo not given)
  8	0.6	7%	-13%	4	13
> Cc1cc(Cl)ccc1OCCCC(=O)NNC(=O)c1ccncc1
  -16	0.4	0%	5%	-1	0
> O=C1Cc2cc(S(=O)(=O)N3CCN(c4ccccc4)CC3)ccc2N1
  0	-6.1	-3%	-104%[inhibitor]	-3	-7
> Cc1noc(C)c1COc1cccc(C(=O)N2CCc3ccccc32)c1
  -6	4.3	5%	-12%[15.4 µM]	13	-3
> COc1cc(CNC(C)C)c(Br)cc1OC1CCCC1
  2	-2.5	19%	-11%[15.4 µM]	5	-4
> O=C(CSc1nnc(-c2ccc(Br)cc2)o1)Nc1cccc(C(=O)O)c1
  -1	1.5	0%	8%	0	-1
> CC(=O)Nc1ccc(S(=O)(=O)N(C)CC(=O)OCC(=O)NCc2ccco2)cc1
  -23	-2.7	5%	-3%	-1	3
> O=C(CCNc1cccc(F)c1)c1cccc([N+](=O)[O-])c1
  -2	-5.9	-6%	-1%[15.4 µM]	?	-16
> Nc1ccc(S(=O)(=O)Nc2ccccn2)cc1
  6	-6.3	1%	·	5	-3

The results go on:
Each structure is followed by: CtBP-E1A blk	D2 ag	gsp antagonist	gsp ag	Six1-Eya2 inh	D2 PAM
> COc1ccc(OC)c(S(=O)(=O)NCC2CCCO2)c1 (stereo not given)
  1	1.4	8%	0%	10	-8
> FC(F)(F)c1ccccc1NC(=S)Nn1cnnc1
  7	0.2	5%	15%	14	-6
> CCCCCCSc1cc(-c2nc3cnccn3c2NCc2ccccc2)ccc1OC
  ·	0.6	7%	?	14	0
> O=C(NCCN1CCCCC1)c1c(O)c2ccccc2[nH]c1=O
  6	-2.8	8%	-41%[inhibitor]	-3	-8
> CNC(=O)/C(C#N)=C/c1c(F)cccc1Cl
  -1	7.8	-5%	-15%	-1	21
> COc1cc(Cl)c(C)cc1NC(=O)CSc1ccc(C)cc1
  45	-3.7	-2%	-20%	28	-11
> Cc1ccc(NC(=O)COC(=O)[C@@H]2CCCN2C(=O)c2cccs2)cc1S(=O)(=O)N(C)C
  0	-4.2	7%	-26%[15.4 µM]	11	-5
> CC1(C)Cc2c(c(-c3ccco3)nc3sc4c(NCCN5CCOCC5)ncnc4c23)CO1
  -2	-3.6	-7%	5%[15.4 µM]	0	-13
> Cc1ccc(C(=O)C(C(=O)/C=C/c2ccccc2)=C2SCCCS2)cc1
  10	-6.8	0%	14%	-1	-12
> O=c1[nH]c(SCc2ccc(F)cc2Cl)nc2ccccc12
  -23	1.7	7%	-37%	1	-2
> CCOc1ccc(N2C(=O)CC(N3CCC(O)(c4ccc(Br)cc4)CC3)C2=O)cc1 (stereo not given)
  1	1.3	-3%	?	-5	-6
> Cc1ccc(NC(=O)C(=O)NCCCN2CCCC2=O)cc1
  -23	1.7	1%	-4%	8	1
> Cc1ccc(NC(=O)CSc2nc(=O)n3cc(C)ccc3n2)c(C)c1
  6	-1.0	19%	?	2	0
> COC(=O)c1ccc(/C=C(/NC(=O)c2ccccc2)C(=O)N2CCOCC2)cc1
  1	5.1	-5%	-8%	1	7
> CCOc1ccc(C(=O)Nc2ccc(S(=O)(=O)Nc3cc(C)on3)cc2)cc1
  0	-4.2	-10%	-6%[15.4 µM]	-4	-5
> O=C(c1cccc(Cl)c1)N1CCC(=O)N(C(COCc2ccccc2)Cc2ccccc2)CC1 (stereo not given)
  1	-3.5	-15%	-1%	1	-2
> CC1=C(C#N)CCC(=O)N1Cc1c(F)cccc1Cl
  5	4.6	·	11%[15.4 µM]	0	-16
> O=C1Nc2ccccc2C(=O)N2[C@H](c3cccc(Br)c3)[C@@H]3C(=O)N(Cc4ccccc4)C(=O)[C@@H]3[C@H]12
  3	-1.2	-24%	·	-8	-5
